Bioassay records: PubChem, National Center for Advancing Translational Sciences (NCATS)
PINK1 expr mod = PINK1 expression modulation; actives 0.2% (n = 410,000); PINK1 immunofluorescence, high-content cytometry, 24 h; Potency, µM (series often up to 76.6 µM), inactives show at the top dose activation (PINK1 increase), hits mostly activators; active = well fitted activation curve with a large enough effect; inconclusive = small, poorly fitted or top-dose-only effect; inactive = flat fitted curve, though single readings scatter; cell line not stated here;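 further: potency means the concentration at half of the fitted maximal effect; % of control where 0% means no effect; nearly all actives have a fitted effect of over 65% in size; a mitochondrial uncoupler was the plate control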
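Measures PINK1 amount and localization on or inside mitochondria by immunofluorescence. Stable cells get compounds at 5 concentrations for 24 hours before fixation and staining; CCCP controls included.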
TRPML1 agonist = human mucolipin-1 channel agonism; TRPML1-expressing cells, Ca2+ dye fluorescence, FDSS; host cell line not named in the record; reference of the full effect not given here; actives 0.12% (n = 410,000); Q9GZU1; activation, % (no concentration beside the values); in the data active = activation above about 50%; inconclusive = about 30% to 50%; inactive = below about 30%; further: 0% is about no effect; the text of the record puts the active cut at 80%
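TRPML1-DL cells, Tet-induced overnight (~16 h, 37 degrees C), loaded 45-90 min at room temperature with Ca8 no-wash calcium dye plus quencher. FDSS fluorescence: 10 s baseline, compound pin-transfer, 110 s agonist read, then EC80 54-4 (4uM final) and 110 s antagonist read.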
Menin MLL FP FL = displaces fluorescein MLL peptide from human menin | AID 1766 | FP activity change, % at 61.4 µM | 290,000 tested, under 10 active | Fluorescence polarization, fluorescein-MLL peptide displacement from menin; inconclusive = falling polarisation curve, or a change in total fluorescence; inactive = total fluorescence flat and polarisation flat or rising; no compound was filed as active; the % refers to the polarisation; negative = inhibition;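 further: % of control where 0% means no effect; inhibitors lower the polarisation; unlabelled MLL peptide was the positive control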
TRPML1 blocker = blocks the human TRPML1 channel. Q9GZU1. TRPML1-inducible cells, Ca2+ dye fluorescence, FDSS; stronger effect = lower value; inhibition of EC80 agonist-evoked calcium signal. activity change, negative = inhibition, % (concentration not given with the values). actives 0.02% (n = 390,000). AID 624415; in the data active means activity change below about -50%; inconclusive means about -30% to -50%; inactive means above about -30%;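 further: stimulus is agonist 54-4 at its EC80 concentration; on the % scale 0 is the no-effect control and ±100 the full control effect; compound concentration not given in the record; the text of the record puts the active cut at -80%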
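Calcium fluorescence in TRPML1-DL cells induced overnight with Tet: a 110 s read after compound pin addition, then a 110 s antagonist read after challenge with 54-4 at 4 uM final (EC80).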
Sfp PPTase inh = Sfp phosphopantetheinyl transferase inhibition. AID 1490. actives 3.5% (n = 310,000). Potency, µM, for the others: max response, negative = inhibition, hits mostly inhibitors. Q9F4F7. Biochemical Sfp PPTase activity, qHTS; active means well fitted inhibition curve with a large enough effect; inconclusive means small, poorly fitted or top-dose-only effect, or another doubt; inactive means no such curve, though single readings can be large or run the other way;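 further: the enzyme is Sfp with the accession as filed and its product quenches rhodamine fluorescence; potency means the concentration at half of the fitted maximal effect; 0% = enzyme reaction without inhibitor and -100% = no enzyme wells; top concentration of the series not given in the record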
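Compounds were incubated with enzyme (final 15 nM) for 15 min at room temperature before substrate addition started the reaction. Fluorescence at 525 nm excitation, 598 nm emission was recorded immediately and after 30 minutes.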
TRPV1 PAM = potentiators of human vanilloid receptor 1 (TRPV1); Q8NER1; TRPV1-expressing cells, Fluo-8 calcium influx, capsaicin EC20 potentiation; host cell line not named in the record; control for the full effect not named in the record; potentiation, % at 8.33 µM; actives 0.02% (n = 320,000); active means potentiation above 80%; inconclusive means 30% to 80%; inactive means below 30%; further: 0% is about no effect
Target sequence (Q8NER1 whole entry, looked up): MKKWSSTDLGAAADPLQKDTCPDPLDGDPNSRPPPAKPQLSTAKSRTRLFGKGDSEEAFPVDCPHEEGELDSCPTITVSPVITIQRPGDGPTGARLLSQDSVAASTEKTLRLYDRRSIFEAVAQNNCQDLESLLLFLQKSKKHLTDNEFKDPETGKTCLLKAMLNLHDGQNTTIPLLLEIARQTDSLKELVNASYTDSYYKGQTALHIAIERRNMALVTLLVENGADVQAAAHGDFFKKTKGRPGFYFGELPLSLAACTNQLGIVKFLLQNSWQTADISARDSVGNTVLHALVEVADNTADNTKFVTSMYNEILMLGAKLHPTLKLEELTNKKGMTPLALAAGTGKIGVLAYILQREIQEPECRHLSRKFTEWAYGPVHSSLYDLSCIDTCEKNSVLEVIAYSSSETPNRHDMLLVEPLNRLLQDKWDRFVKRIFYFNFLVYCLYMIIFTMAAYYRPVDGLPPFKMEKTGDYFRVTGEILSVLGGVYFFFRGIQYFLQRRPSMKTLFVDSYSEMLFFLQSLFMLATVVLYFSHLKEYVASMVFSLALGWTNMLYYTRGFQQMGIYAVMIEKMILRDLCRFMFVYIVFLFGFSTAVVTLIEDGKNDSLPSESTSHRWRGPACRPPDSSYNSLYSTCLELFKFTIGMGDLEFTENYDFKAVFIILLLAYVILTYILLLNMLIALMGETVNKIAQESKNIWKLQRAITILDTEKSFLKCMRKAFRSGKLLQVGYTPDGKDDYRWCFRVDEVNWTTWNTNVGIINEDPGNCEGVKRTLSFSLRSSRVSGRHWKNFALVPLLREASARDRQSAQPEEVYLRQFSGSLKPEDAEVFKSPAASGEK
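TRPV1-expressing cells were cultured overnight at 35.5C and loaded with Fluo-8 calcium dye for 40 to 90 min at room temperature. After a 10 s baseline, compound was added and calcium influx was read kinetically for 3 min (ex 480/em 520 nm).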
ClpP mod = qHTS Assay for Activators of ClpP | ATP-dependent Clp protease proteolytic subunit (Bacillus subtilis (strain 168)), P80244 | purified B. subtilis ClpP, FRET peptide cleavage, 20 min | Potency, µM (top dose mostly 57.5 µM), for inactives: at the top dose activity change, negative = active | actives 1.9% (n = 340,000) | AID 651965, 2013; active = well fitted falling curve with a large enough effect; inconclusive = small, poorly fitted or top-dose-only effect; inactive = no such curve, though single readings can be large or run the other way; further: potency means the concentration at half of the fitted maximal effect; the source files actives as falling curves though it sought activators and does not explain the sign; nearly all actives have a fitted effect of over 65% in size; many hits overshoot -100%
Target sequence (P80244 whole entry, looked up): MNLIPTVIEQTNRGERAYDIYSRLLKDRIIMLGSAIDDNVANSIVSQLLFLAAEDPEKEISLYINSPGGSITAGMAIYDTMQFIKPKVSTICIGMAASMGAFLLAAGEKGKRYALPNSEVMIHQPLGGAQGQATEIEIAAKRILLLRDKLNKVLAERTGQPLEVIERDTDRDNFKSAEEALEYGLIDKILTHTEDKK
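Purified B. subtilis ClpP, 10 microg/mL final in Tris/HCl pH8 with KCl, BSA, glycerol and Tween-20, cleaved an Abz/nitrotyrosine-quenched decapeptide. Fluorescence (ex 320, em 430) was read at 0 and 20 min at room temperature. Delta was normalized to 5.8 microM ADEP and DMSO/no-enzyme controls.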
* hit, by the source's call; ? = inconclusive; . = not tested or not shown; & = joins results of further samples; [ ] = dose if it differs, or a comment.

The line under a structure holds: PINK1 expr mod, TRPML1 agonist, Menin MLL FP FL, TRPML1 blocker, Sfp PPTase inh, TRPV1 PAM, ClpP mod
COc1ccc(N=C2NN=C(c3ccc4c(c3)OCCO4)CS2)cc1
→ 3.4%, -0.3, 3.3, 16, ?, 2, -1.1%
Cc1ccc(S(=O)(=O)NCCC(=O)Nc2cccc(S(N)(=O)=O)c2)cc1C
→ -3.7%, 0.1, 3.6, 3, -2%, -3, .
COc1ccc(C(=O)NNC(=O)C2CCN(S(=O)(=O)c3ccc(C)cc3)CC2)cc1
→ 2.7%, -0.5, 1.3, -5, 18%, 6, .
COc1cccc(/C=C/C(=O)NNC(=O)c2cc(C)oc2C)c1
→ 7.9%, -0.1, ., 20, ., ?, ?
CC(C)CN1C(=O)c2ccc(C(=O)Nc3ccc(O)cc3C(=O)O)cc2C1=O
→ 0.2%, 1.3, -5.9, 12, 7%, -4, -4.7%
CC1CCCCN1Cc1ccc(-c2nn[nH]n2)cc1 (configuration not stated)
→ 3.7%, -0.2, 6.6, 8, 24%, ?, 0.3%
CC(=O)N1c2ccc(S(=O)(=O)N3CCC(C(=O)N4CCN(c5ccccc5F)CC4)CC3)cc2CC1C (configuration not stated)
→ 0.5%, 0.5, ., -8, 7%, -1, -2.0%
Cc1ccc(S(=O)(=O)CCC(=O)OCC(=O)c2ccc(C)c(C)c2)cc1
→ 2.2%, 1.8, 5.0, 0, -4%, ?, 1.2%
Cc1ccc(NC(=O)Cn2c(=O)oc3ccccc32)cc1
→ -0.1%, 1.1, 0.0, 7, 17%, -13, -1.5%
Cc1noc(C)c1C(=O)N1CCN(Cc2ccc3c(c2)OCO3)CC1
→ 9.6%[38.3 µM], 0.4, 4.3, -5, 21%, -3, -1.9%
COc1ccc(C2c3c(oc4ccccc4c3=O)C(=O)N2c2ccccn2)cc1OC (configuration not stated)
→ 3.5%, 0.8, 1.2, -9, 14%, 3, -1.1%
O=C(CCc1ccccc1)NNC(=O)c1ccccn1
→ 1.0%, 3.6, 1.7, -7, 12%, 7, 0.8%
Cc1sc2c(c1C)c(=O)n(CCc1ccccc1)c(=O)n2Cc1ccc(F)cc1
→ 2.8%, 1.4, ., 33, ., ., -13%
CC1Nc2nc(NC(=O)C(C)(C)C)[nH]c(=O)c2N(C)C1C (configuration not stated)
→ -1.9%, 0.5, ., -4, -10%, -27, 1.0%
CC1CCC2(CC1)NC(=O)N(Cc1nnc(-c3cccs3)o1)C2=O (configuration not stated)
→ 0.1%, -0.2, 3.2, -6, 12%, -8, -1.9%
O=C1CCCc2cc(S(=O)(=O)N3CCCC(C(=O)NCc4ccccc4Cl)C3)ccc2N1 (configuration not stated)
→ -0.6%, 1.5, ., -8, ., ., -2.0%
CCC(C)N1C(=S)SC(C)(C)C1N(O)C(=O)NC1CCCCC1 (configuration not stated)
→ 5.5%, 0.1, 1.9, 8, 14%, -10, 0.3%
O=S1OCCN1c1ccccc1 (configuration not stated)
→ 1.6%, -0.4, -9.8, -6, -9%, 9, -0.3%
CCn1c(COC(=O)CNC(=O)c2ccccc2)nc2cc(S(=O)(=O)N(C)C)ccc21
→ -0.2%, -0.3, ., -3, ., 15, 11%
CCc1c(C)sc(NC(=O)c2cc(-c3ccc(OC)c(OC)c3)on2)c1C#N
→ 1.0%&5.4%, -0.9&1.8, -2.1, 9&7, 11%, 2, -3.4%&4.1%
CC1=NN(c2nc(-c3ccc(C)cc3)cs2)C(=O)C1N=Nc1cccc(O)c1 (configuration not stated)
→ 4.0%, 0.2, 14, -1, -15%, 4, .
CCc1ccc(CNC(=O)c2cnc3sc(N4CCCCC4)nn3c2=O)cc1
→ -0.9%, -0.3, ., 13, ., ., ?
CC1CCN(CC(=O)Nc2nn(-c3ccccc3)nc2C(N)=O)CC1
→ 3.5%, 2.1, -1.8, 11, -1%, -10, .
CN1CCN(c2ccccc2NC(=O)c2ccc(-c3ccccc3)cc2)CC1
→ -0.1%, -0.7, 0.3, 8, -8%, 6, -0.5%
O=C(COC(=O)c1cc(S(=O)(=O)N2CCOCC2)ccc1O)NCCc1ccccc1
→ -0.3%, 0.2, 1.8, -6, 11%, 11, ?
CN(C)CCN(Cc1ccccc1)C(=O)[C@H](Cc1ccccc1)N1C(=O)c2ccccc2C1=O
→ 0.4%, 0.4, -5.8, -30, 2%, 0, .
O=C(NCc1ccc(Cl)cc1)c1cnc2sc(N3CCCCCC3)nn2c1=O
→ 0.1%, -0.4, ., 9, ., ., -5.5%
CCN1C(=O)CC(SC2CC(=O)N(CC)C2=O)C1=O (configuration not stated)
→ 3.5%, 1.0, ., -8, ., ., -2.2%
FC(F)(F)c1cc(-c2ccco2)nc(-n2nnc3ccccc32)n1
→ ?, 0.5, 1.7, 21, -3%, 14, 28µM*
CCCOc1ccccc1NS(=O)(=O)c1ccc2[nH]c(=O)[nH]c2c1
→ 1.6%, -0.2, -7.1, 3, 7%, -5, 0.0%

Complete entries as entered above.
Entry for `Cc1ccc(S(=O)(=O)NCCC(=O)Nc2cccc(S(N)(=O)=O)c2)cc1C` → PINK1 expr mod = -3.7%; TRPML1 agonist = 0.1; Menin MLL FP FL = 3.6; TRPML1 blocker = 3; Sfp PPTase inh = -2%; TRPV1 PAM = -3; ClpP mod = .
Entry for `Cc1sc2c(c1C)c(=O)n(CCc1ccccc1)c(=O)n2Cc1ccc(F)cc1` → PINK1 expr mod = 2.8%; TRPML1 agonist = 1.4; Menin MLL FP FL = .; TRPML1 blocker = 33; Sfp PPTase inh = .; TRPV1 PAM = .; ClpP mod = -13%

(more compounds)
The line under a structure holds: PINK1 expr mod, TRPML1 agonist, Menin MLL FP FL, TRPML1 blocker, Sfp PPTase inh, TRPV1 PAM, ClpP mod
CCOc1ccc(Cl)cc1S(=O)(=O)N1CCC(C(=O)NCc2cccnc2)CC1
→ -0.3%, -0.2, -1.4, 13, 8%, -5, .
Cc1cc(C)cc(NC(=O)CCC(=O)Nc2nnc(C(F)(F)F)s2)c1
→ 0.2%, 1.5, 2.0, 18, 19%, 7, 0.8%
Nc1nnc2cc(Cl)ccc2n1
→ -3.8%, -0.3, ., -23, ., ., .
Cc1cc(CSc2ccc(Cl)cc2)ccc1N
→ 14%, 1.2, ., -26, ., ., .
COc1cccc(C(C)(O)c2nc(-c3ccc4c(c3)OCO4)cs2)c1 (configuration not stated)
→ 2.5%, -0.1, ., ., ., ., -0.9%
CCN1C(=O)[C@H]2[C@@H](c3ccc(-c4ccccc4)cc3)N[C@@](CC(C)C)(C(=O)OC)[C@H]2C1=O
→ 1.9%, -0.4, ., -5, ., -20, -9.0%
CCN(CC)S(=O)(=O)c1ccc2[nH]c(=O)cc(C(=O)Nc3ccccc3N3CCCC3)c2c1
→ -0.6%, -0.7, -6.1, -11, 4%, -3, 0.2%
CCc1nc2ccc(C(=O)NCCCN(C)C)cn2c1N(C)Cc1ccc(OC)cc1
→ 1.8%, -0.5, ., ., ., ., -3.5%
CN1C(=O)C(O)(c2sc(N)nc2-c2ccccc2)c2ccccc21 (configuration not stated)
→ -1.4%, -0.2, -1.6, 12, 13%, ., -4.2%
COc1cc([N+](=O)[O-])ccc1NC(=O)Oc1ccc(NC(C)=O)cc1
→ 2.3%, 0.0, 6.6, 5, 26%, 6, 4.3%
CCOC(=O)C1CCN(c2cc(C)nc3c(-c4ccccc4OC)c(C)nn23)CC1
→ 1.3%, 1.9, ., -13, ., ., -13%
COc1ccc(-c2nnc(SCc3ncc(-c4ccccc4)o3)o2)cc1
→ -0.1%, 4.3, 0.5, -3, -4%, 16, 9.5%
Cc1noc(C)c1COC(=O)C(c1ccccc1)c1ccccc1
→ 7.6%, 2.8, 0.0, 40, -16%, 8, 0.6%
Cc1ccc(N2C(=O)NC(NC(=O)C(C)(C)C)(C(F)(F)F)C2=O)cc1 (configuration not stated)
→ -1.2%, -0.2, 5.5, -3, 25%, 7, -0.6%
O=C(CSc1ccc(-c2cccc([N+](=O)[O-])c2)nn1)N1CCCCCC1
→ 2.3%, 1.1, 0.1, 32, 10%, -10, .
COc1ccc(C2Nc3ccccc3C(=O)N2Cc2ccccc2)cc1Cn1nnc2ccccc21 (configuration not stated)
→ ?, 1.1, 11, 23, 3%, -6, 35µM*
CCOC(=O)C1=CN(Cc2cccc(F)c2)S(=O)(=O)NC1CCc1ccccc1 (configuration not stated)
→ ?, 1.5, ., -3, ., ., -0.8%
Cn1c(C(=O)N2CCCC(C(=O)NCc3ccc4c(c3)OCO4)C2)cc2sccc21 (configuration not stated)
→ 1.6%, -0.5, 1.2, 3, 4%, -2, -0.9%
O=C(NCc1ccccc1)C(c1cccnc1)N(C(=O)c1ccccn1)c1ccc(F)cc1 (configuration not stated)
→ -1.2%, 0.0, 3.0, 7, 31%, 13, .
Cc1c(C)n(CCO)c2ncnc(Nc3ccc(F)cc3)c12
→ 2.1%, 0.9, 3.6, 54, 5%, 5, .
Cc1cc(C)c(NC(=O)CNC(=O)COC(=O)/C=C/c2cccs2)c(C)c1
→ 0.7%, 0.4, ., -7, ., -16, 1.4%
CC(Sc1nnc(C2CCCCC2)n1N)C(=O)NCc1ccc2c(c1)OCO2 (configuration not stated)
→ -2.5%, 1.7, 1.8, -9, -12%, ?, -0.6%
O=C(O)c1ccc(NNC(=S)Nc2cc(C(F)(F)F)ccc2Cl)cc1
→ 1.1%, 0.5, -1.0, -5, 89µM*, -5, .
O=C(Cc1ccc(-c2ccccc2)cc1)NO
→ 3.1%, -0.4, ., ., ., ., -4.3%
O=C(c1cnccn1)N1CCc2ccccc2C1
→ 2.2%, 0.2, 2.4, 23, -17%, -11, .
CCN(Cc1ccccc1)C(=O)CSc1ccccc1C(=O)O
→ 1.6%, 0.5, 0.7, -14, 3%, 1, -1.1%
Cc1ccc(NC(=S)N(Cc2cccc(Br)c2)CC2CCC(C(=O)O)CC2)cc1 (configuration not stated)
→ -0.4%, 0.3, -4.1, 11, -21%, 1, .
Nc1cc(C(=O)OCC(=O)NCc2ccc(F)cc2)ccc1Cl
→ 0.9%, -0.6, 2.2, 4, -5%, -18, .
